Rango complex inh: inhibitors of Rango-importin beta complex formation. Rango CFP/YFP FRET sensor + importin beta, 45 min. Potency, µM (top dose mostly 92.2 µM), for inactives: at the highest dose inhibition of complex formation. hit rate 0.031% among 340,000; active = rising FRET ratio curve, often small or poorly fitted; inconclusive = mostly compound fluorescence or quenching in the first reads; inactive = flat curves in all reads;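 also: potency is read from the fitted curve at half-maximal effect; 0% = DMSO wells and 100% = buffer wells lacking importin beta; nearly all actives have a fitted effect of over 15% in size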
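FRET biosensor Rango (snurportin 1 IBB between N-terminal EYFP and C-terminal Cerulean), 50 nM in PBS/1 mM DTT/0.02% Tween-20/0.1% BSA, preincubated 5 min RT with compound; 0.125 microM importin beta added, 45 min RT, CFP/YFP FRET ratio read.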
Rango release inh: inhibition of RanGTP-driven Rango-importin beta dissociation | O95149+P62826 | Biochemical FRET Rango-importin beta, RanGTP-induced dissociation | Potency, µM (top dose mostly 46.1 µM), inactives show top-dose activity change, negative = inhibition | hit rate 0.071% among 340,000 | AID 540253; active means falling FRET ratio curve, often poorly fitted, with flat reads before Ran was added; inconclusive means other falling curves, or compound fluorescence or quenching; inactive means flat or rising ratio curve;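 also: potency is read from the fitted curve at half-maximal effect; % of control where 0% means no effect; nearly all actives have a fitted effect of over 45% in size; -100% = wells without RanGTP and RCC1; the record marks most hits as doubtful in a second field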
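Compounds preincubate 5 min with complex of recombinant Rango and importin beta in PBS with 1 mM DTT. Ran (0.6 uM) loaded with 2 mM GTP plus 0.2 uM RCC1 starts dissociation; FRET is recorded 45 min later.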
miR-21 reporter: raises the signal of a miR-21 reporter; HeLa miR-21 FLuc reporter, luciferase, 48 h; Potency, µM (top dose mostly 38.3 µM), for the others: top-dose reporter change, positive = more light; 340,000 tested, under 10 active; AID 2288; active = well fitted rising curve with a large enough effect; inconclusive = small, poorly fitted or top-dose-only effect; inactive = no such curve, though single readings can be large or run the other way;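 also: % of control where 0% means no effect; miR-21 action dims this reporter so a rising signal means less miR-21 action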
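Luminescence from a firefly luciferase reporter carrying a miR-21 binding site downstream, stably expressed under a CMV promoter in HeLa cells that make miR-21 endogenously, reports miRNA modulation after 48 h compound exposure up to approximately 40uM final.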
GLA inh pH 4.5: blocks human alpha-galactosidase A at pH 4.5; AID 1467; activity change, negative = inhibition, % at 105 µM; P06280; 230,000 tested, under 10 active; purified enzyme, 4-MU-alpha-Gal fluorescence, pH 4.5; inconclusive = small, poorly fitted or top-dose-only inhibition, or a rising curve; inactive = flat fitted curve, though single readings scatter; no compound was filed as active;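 also: 0% = full activity with enzyme and -100% = basal without enzyme; dose as in the result columns while the protocol names 77 µM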
Target sequence (P06280 whole entry, looked up): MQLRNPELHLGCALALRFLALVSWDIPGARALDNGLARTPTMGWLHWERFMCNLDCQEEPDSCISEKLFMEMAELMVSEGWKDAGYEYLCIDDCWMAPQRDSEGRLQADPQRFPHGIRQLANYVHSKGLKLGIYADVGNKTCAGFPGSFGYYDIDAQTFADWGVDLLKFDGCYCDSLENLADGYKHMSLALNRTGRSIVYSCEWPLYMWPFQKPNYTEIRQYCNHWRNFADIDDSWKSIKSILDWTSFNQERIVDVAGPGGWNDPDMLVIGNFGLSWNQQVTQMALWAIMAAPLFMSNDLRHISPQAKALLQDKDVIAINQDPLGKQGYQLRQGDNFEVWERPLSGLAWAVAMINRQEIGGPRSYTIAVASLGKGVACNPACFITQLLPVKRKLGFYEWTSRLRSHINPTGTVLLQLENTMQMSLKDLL
* marks the source's active call; other numbers are inactive results; ? = inconclusive; / = no result given; [ ] = another dose, or the depositor's remark. The list is partial; count on the stated rates, not on these rows.

Start of the data: the first 14 entries, ahead of the listing:
SMILES | Rango complex inh | Rango release inh | miR-21 reporter | GLA inh pH 4.5
COc1ccccc1-c1csc(Cc2nnc3n2CCCCC3)n1 | -1.8% | -5% | -2% | 4
O=C(Cc1ccc(S(=O)(=O)N2CCCCC2)s1)Nc1cccc2ccccc12 | 0.5% | -5% | 3% | -14
C/C(=N\NC(=O)Cc1ccccc1)c1cccnc1 | -0.3% | 3% | -17% | /
O=C1c2[nH]nc(-c3ccccc3O)c2C(c2ccc(F)cc2)N1CC1CCCO1 (stereo not given) | -0.4% | -4% | 11% | 4
NC(=O)c1ccccc1NC(=O)/C=C/C(=O)O | -0.1% | 0% | -37% | 5
C=CCNC(=S)N1CCN(c2cccc(C(F)(F)F)c2)CC1 | 1.1% | 0% | 6% | 3
Cc1ccc(C(=O)NNC(=O)c2ccccc2)cc1S(=O)(=O)N1CCCCC1 | 3.8% | -1% | / | /
COc1ccc(/C=C2\CCCCC2=O)cc1 | -1.5% | 4% | / | /
OCCOCCNc1ncnc2nc[nH]c12 | 1.8% | -9% | -1% | 2
CS(=O)(=O)c1ccc(Cl)c(NC(=O)c2cccc(N3C(=O)CCC3=O)c2)c1 | -0.9% | -6% | / | /
CC(=O)c1cccc(NC(=O)CCS(=O)(=O)c2cccc3nonc23)c1 | -0.2% | 0% | -3% | -7
CN(Cc1ccncc1)C1CC(=O)N(c2ccc(Cl)cc2)C1=O (stereo not given) | -2.4% | 3% | 2% | 1
C(=N\n1cnnc1)/c1ccc2c(c1)OCCO2 | -3.3% | -9% | -13% | -1
C=CCn1c2ccccc2c2nnc(SCC(N)=O)nc21 | -4.0% | -6% | -7% | /

The list itself, previewed entries included:
SMILES | Rango complex inh | Rango release inh | miR-21 reporter | GLA inh pH 4.5
COc1ccccc1-c1csc(Cc2nnc3n2CCCCC3)n1 | -1.8% | -5% | -2% | 4
O=C(Cc1ccc(S(=O)(=O)N2CCCCC2)s1)Nc1cccc2ccccc12 | 0.5% | -5% | 3% | -14
C/C(=N\NC(=O)Cc1ccccc1)c1cccnc1 | -0.3% | 3% | -17% | /
O=C1c2[nH]nc(-c3ccccc3O)c2C(c2ccc(F)cc2)N1CC1CCCO1 (stereo not given) | -0.4% | -4% | 11% | 4
NC(=O)c1ccccc1NC(=O)/C=C/C(=O)O | -0.1% | 0% | -37% | 5
C=CCNC(=S)N1CCN(c2cccc(C(F)(F)F)c2)CC1 | 1.1% | 0% | 6% | 3
Cc1ccc(C(=O)NNC(=O)c2ccccc2)cc1S(=O)(=O)N1CCCCC1 | 3.8% | -1% | / | /
COc1ccc(/C=C2\CCCCC2=O)cc1 | -1.5% | 4% | / | /
OCCOCCNc1ncnc2nc[nH]c12 | 1.8% | -9% | -1% | 2
CS(=O)(=O)c1ccc(Cl)c(NC(=O)c2cccc(N3C(=O)CCC3=O)c2)c1 | -0.9% | -6% | / | /
CC(=O)c1cccc(NC(=O)CCS(=O)(=O)c2cccc3nonc23)c1 | -0.2% | 0% | -3% | -7
CN(Cc1ccncc1)C1CC(=O)N(c2ccc(Cl)cc2)C1=O (stereo not given) | -2.4% | 3% | 2% | 1
C(=N\n1cnnc1)/c1ccc2c(c1)OCCO2 | -3.3% | -9% | -13% | -1
C=CCn1c2ccccc2c2nnc(SCC(N)=O)nc21 | -4.0% | -6% | -7% | /
Cc1ccc(-c2nc3ccc(Cl)cc3c(=O)n2O)cc1 | 3.1% | -4% | 2% | /
C[C@H](CO)N1C[C@H](C)[C@@H](CN(C)C)Oc2c(NC(=O)CCCCCC(=O)Nc3ccccc3N)cccc2C1=O | -1.7% | 7% | / | /
Cc1ccc(C(=O)c2c3ccccc3[n+]([O-])n2[C@@H](C)C(N)=O)cc1 | ? | -4% | / | /
COC(=O)c1cc(S(=O)(=O)NC2CCCCC2)cn1C | -0.2% | -2% | -3% | /
O=C(O)c1cc(Sc2ccc(Br)cc2)nc2ccccc12 | -1.9% | 14% | 6% | 5[21.1 µM]
COc1ccccc1N(C)S(=O)(=O)c1ccc(C(=O)Nc2ccc(C)cc2C)cc1 | -1.3% | -9% | / | /
Cc1cccc(NS(=O)(=O)c2ccc3c(c2)OCCO3)c1 | 2.0% | -1% | 16% | -5
Cc1cccc(-c2nc(CS(=O)CC(=O)NCC3CCCO3)c(C)o2)c1 (stereo not given) | -0.1% | 11% | -10% | 5
CCc1[nH]nc(C(=O)N2CCCC(CO)(Cc3ccc(F)cc3F)C2)c1C (stereo not given) | -1.0% | -11% | -1% | /
O=C(O)c1cc(N=Cc2c(O)c3ccccc3oc2=O)ccc1O | ? | ? | 6% | /
Cc1ccccc1-c1ccc(C(=O)NCc2ccccc2)o1 | -0.8% | 30% | -41% | -8

Next part.
SMILES | Rango complex inh | Rango release inh | miR-21 reporter | GLA inh pH 4.5
CC(C)c1nc2sc3c(NCc4ccccc4)ncnc3c2c2c1COC(C)(C)C2 | -0.6% | 5% | -7% | 3
CC(C)CC1=NN(C(=O)c2ccco2)C(O)(C(F)(F)F)C1 (stereo not given) | -1.2% | 0% | 1% | 7
COc1ccc(CN(CC(=O)NCC2CCCO2)C(=O)CCC(=O)Nc2cc(C)on2)cc1 (stereo not given) | ? | 2% | -4% | 0
COC(=O)C1=C(C)N(Cc2ccccc2)C(=NCCc2cccnc2)N[C@H]1c1ccc(Br)cc1 | -5.5% | 0% | ? | /
CC(C)CC(=O)N1CCN(c2ccc([N+](=O)[O-])cc2Cl)CC1 | 10.0% | -4% | -4% | -4
Cc1ccc(CNC(=O)c2cccnc2Cl)cc1 | 0.1% | -18% | -3% | -2
COc1ccc(-c2ccc3nnc(SCC(=O)NCC4CCCO4)n3n2)cc1 (stereo not given) | 6.3% | 15% | / | /
O=C(O)/C=C\C(=O)Nc1cccc(NC(=O)c2ccccc2)c1 | 1.9% | 6% | -22% | 1
Cc1ccc(NS(=O)(=O)c2cccc([N+](=O)[O-])c2)nc1 | 2.2% | 26% | 3% | -9
O=C(NCc1ccco1)c1ccc(N2CCCCC2)c([N+](=O)[O-])c1 | -0.5% | 3% | -37% | -2
COc1ccc(Br)cc1-c1noc(-c2ccccc2F)n1 | -2.7% | -2% | -2% | 1
CCC(=O)N1CCN(c2ccc(NC(=O)COc3ccccc3[N+](=O)[O-])cc2)CC1 | 1.1% | -15% | 29% | -4
COC(=O)c1ccc(CNC(=O)COC(=O)c2cccs2)cc1 | -2.1% | 7% | / | /
O=S(=O)(c1ccc(OC(F)(F)F)cc1)N1CCCC(c2ccccc2)C1 (stereo not given) | -0.6% | -4% | 1% | /
O=C1CC(/C=C/c2ccccc2)(C(=O)NC2CCCC2)N1c1ccc(S(=O)(=O)N2CCCC2)cc1 (stereo not given) | -1.2% | -3% | -11% | 5
O=C1c2ccccc2S(=O)(=O)N1Cc1cc(=O)n2ccsc2n1 | 0.0% | 3% | -1% | -1
N#Cc1ccsc1NC(=O)COC(=O)CCS(=O)(=O)c1ccccc1 | ? | 7% | / | /
CN(C)Cc1c(C(=O)N/N=C/c2ccco2)nnn1-c1nonc1N | -0.3% | 9% | -1% | /
O=C(COC(=O)CCNS(=O)(=O)c1ccccc1)Nc1ccc(OC(F)F)cc1 | 5.1% | 1% | / | /
COc1ccc(/C=C/CN2CCC(CO)(Cc3ccccc3Cl)CC2)cc1 | 0.0% | 2% | -8% | -2
OCC1(Cc2ccccc2)CCN(C2CCN(c3ccc(F)c(F)c3)CC2)CC1 | -0.3% | 3% | 2% | 2
Cc1cccc(C)c1OCCN1CCCC1 | 2.9% | 12% | -1% | /
CCCC(=O)NCCc1nc2ccccc2n1CC(=O)c1ccccc1 | 0.5% | 0% | -2% | 8
Cc1ccc2n(n1)c(=O)c(Cc1ccccc1)c([O-])[n+]2-c1ccccc1 | 8.6% | -2% | -19% | 2
CCOc1ccc(N(CC(=O)Nc2ccc(C)c(C)c2)S(=O)(=O)c2c(C)[nH]c(=O)[nH]c2=O)cc1 | -2.1% | -16% | -8% | -9

Later entries:
SMILES | Rango complex inh | Rango release inh | miR-21 reporter | GLA inh pH 4.5
CC(=O)N1CCOc2ccc(S(=O)(=O)N3CCC(C(=O)NCc4ccc(C)cc4)CC3)cc21 | 3.6% | -16% | 0% | /
CC(=O)N(CC(C)C(=O)O)c1c(I)cc(I)c(N)c1I (stereo not given) | 1.2% | 9% | / | /
O=C(O)CCC(=O)Nc1ccc(SSc2ccc(NC(=O)CCC(=O)O)cc2)cc1 | 0.1% | 25% | -2% | /
O=C(Nc1cccc(S(=O)(=O)N2CCCCCC2)c1)C1CCN(C(=O)c2ccc(Cl)cc2)CC1 | -0.6% | -15% | / | /
O=C(c1ccc2c(c1)OCCCO2)N1CCCCC1 | -0.9% | 16% | -53% | 7
CCCCc1ccc(S(=O)(=O)Nc2cc(C)on2)cc1 | -3.8% | -4% | -2% | 2
CC(C)Cc1nc2sc3c(SCC(N)=O)ncnc3c2c2c1CCC2 | ? | 20% | -6% | 2
CC(=O)N1C=Cc2c(c(C)c3c([nH]c4ccccc43)c2C)C1 | / | / | 25% | 1
CNC(=O)c1sc(-c2ccc(Cl)cc2)nc1C | 4.3% | -18% | -66% | 14
NNC(=O)c1[nH]c2ccc(Cl)cc2c1-c1ccccc1 | 3.5% | -5% | 29% | -1
COCCCNC(=O)c1cc2c(=O)n3cc(C)ccc3nc2nc1NCC1CCCO1 (stereo not given) | / | / | -4% | 16
CCN(CC)S(=O)(=O)c1ccc2c(c1)oc(=O)n2CC(=O)N(C)C1CCCCC1 | -5.0% | 11% | -2% | /
COc1ccc(N2C(=O)N3[C@H](c4cccc(C)c4)[C@@H]4C(=O)N(Cc5ccccc5)C(=O)[C@@H]4[C@]3(Cc3ccccc3)C2=O)cc1 | -0.7% | 18% | 0% | /
Cc1ccc(Sc2cc(C(=O)NCCCN(C)C)c3ccccc3n2)cc1 | -0.6% | -2% | -9% | /
COCCOC(=O)c1c(C)oc2ccc(OCc3ccccc3)cc12 | 0.4% | 1% | -2% | -3
CC(C)C(C(=O)NCC1CCCO1)N(CC1CCCO1)C(=O)CNS(=O)(=O)c1ccccc1 (stereo not given) | 1.1% | -1% | -3% | /
Cc1nnsc1S(=O)c1ccc(F)cc1 (stereo not given) | 1.2% | -9% | 9% | /
CCN(CC)S(=O)(=O)c1csc(C(=O)OCC(=O)c2ccccc2)c1 | -2.4% | 1% | -6% | -16
COc1ccc(CNC(=O)C2CCN(c3cc(C(=O)Nc4cccc(OC)c4)ccn3)CC2)cc1 | ? | -2% | 8% | /
CCCNC(=O)C(=O)N/N=C/c1cccs1 | -0.1% | -5% | -23% | 0
O=C(c1ccc(CSc2ccccc2)cc1)N1CCN(c2ccccc2)CC1 | 3.6% | -6% | -10% | -18
COc1ccc(C2/C(=C(/O)c3ccc4c(c3)CC(C)O4)C(=O)C(=O)N2CCN2CCOCC2)cc1OC (stereo not given) | -3.7% | 17% | 2% | /
COc1ccc(NC(=O)CSc2nnc(-c3cc(C)[nH]n3)n2N)cc1OC | -2.5% | 0% | 7% | /
CCOc1ccc(C2OCCC(C)O2)cc1OC (stereo not given) | 3.7% | -3% | / | /
Cn1c(SCc2nn[nH]n2)nc2c1c(=O)n(Cc1ccccc1Cl)c(=O)n2C | 0.4% | -4% | -3% | 10

Next compounds
SMILES | Rango complex inh | Rango release inh | miR-21 reporter | GLA inh pH 4.5
COC(=O)c1cc(NC(=O)C2CC2)cc(C(=O)OC)c1 | -1.8% | 13% | 4% | -1
Cc1ccc(CC2CC(=O)N(c3cc(C)on3)C2=O)cc1 (stereo not given) | -7.7% | -10% | -1% | 0
Cc1ccc(S(=O)(=O)CCC(=O)NCc2ccco2)cc1 | 1.5% | 10% | 0% | 5
CCOc1cc(/C=N\NC(=O)OC(C)(C)C)ccc1OC(=O)c1ccco1 | 6.4% | -12% | -3% | 7
Cn1c(-c2sc3cc(C(F)(F)F)cnc3c2-c2ccccc2)n[nH]c1=S | 5.9% | -2% | -4% | -2
c1cc(-c2nnc3sc(C4CCCCC4)nn23)ccn1 | -0.8% | 12% | 5% | 0

From PubChem BioAssay
